2A Renilla: Primary qHTS Assay for Foot and Mouth Disease Virus Antivirals against NCGC Sytravon and CBC Compound Libraries: Renilla Luciferase Signal | HEK cells with a luciferase reporter of 2A StopGo recoding | Potency, µM (highest dose often 57.5 µM), for the others: top-dose signal change, negative = less light | actives 0.32% (n = 120,000) | AID 1745857, 2022; active means well fitted falling curve with a large enough effect; inconclusive means small, poorly fitted or top-dose-only effect; inactive means no such curve, though single readings can be large or run the other way; also: nearly all actives have a fitted effect of over 55% in size; overnight with compound
2A firefly: Primary qHTS Assay for Foot and Mouth Disease Virus Antivirals against NCGC Sytravon and CBC Compound Libraries: Firefly Luciferase Signal; HEK cells with a luciferase reporter of 2A StopGo recoding; Potency, µM (series often up to 57.5 µM), inactives show top-dose signal change, negative = less light; actives 0.23% (n = 120,000); AID 1745856, 2022; active = well fitted falling curve with a large enough effect; inconclusive = small, poorly fitted or top-dose-only effect; inactive = no such curve, though single readings can be large or run the other way; also: nearly all actives have a fitted effect of over 60% in size; overnight with compound
An asterisk follows results filed as active; ? = inconclusive; & = joins results of further samples; [ ] = another dose, or the depositor's remark. % is scaled to controls: 0 for no effect and ±100 for the full control effect; potency is read from the fitted curve at half-maximal effect. Only part of the results is shown. The share of hits here may be higher or lower than overall.

SMILES,2A Renilla,2A firefly
COc1ccccc1CNc1nc(-c2ccc(CN(C)C(C)=O)cc2)cs1,?,?
CC(NC(=O)c1nn(C(C)C)c(=O)c2ccccc12)c1cccs1 (centres undefined),43%,21%
Cc1cccc(NC(=O)N2CC(=O)Nc3sc4c(c3C2c2ccccc2)CCCC4)c1C (centres undefined),-1%,-14%
Cc1ccc(-c2nn(CC(=O)O)c(=O)c3ccccc23)cc1,-9%,-3%
Cc1cc2nc(-c3cccc(NC(=O)COc4ccc([N+](=O)[O-])cc4)c3)oc2cc1C,20%,12%
CCC(=O)N1CCc2cc(S(=O)(=O)NC(CC(C)C)C(=O)NCc3ccc(F)cc3)ccc21 (centres undefined),11%,-15%
CCCNC(=O)CSc1nc2ccsc2c(=O)n1CCC(C)C,29%,14%
CNCC#CCOc1c(C)cc(C)cc1C,-13%,-11%
NS(=O)(=O)c1cc2c(cc1Cl)NCNS2(=O)=O,-2%,-11%[11.5 µM]
CCOc1cc(/C=C2\NC(=O)NC2=O)cc(I)c1OCc1ccc(C(=O)O)cc1,10%,0%
CC1CCN(C(=O)C2CCN(C(=O)c3ccc4cc[nH]c4c3)CC2)CC1,102%[activator],-2%
CCOc1ccc(C(=O)CCC(=O)N(CC#N)C2CC2)cc1,7%,74%[activator]
CCc1ccccc1NC(=O)C(=O)NCCCN1CCOCC1,-12%,-1%
CN(C)C(=O)CNC(=O)Cn1c(=O)c2c(ncn2Cc2ccco2)n(Cc2ccccc2)c1=O,-3%,5%
N#CCCCCOc1ccc(-c2ccccc2)cc1,14%,212%[activator]
CCCCS(=O)CC(O)CSc1nc(-c2ccc(OC)cc2)cc(-c2ccccc2)c1C#N (centres undefined),-7%,-14%
CCOc1ccc(N(C(=O)CC(C)C)S(=O)(=O)c2ccc3c(c2)oc(=O)n3C)cc1,156%[activator],31%[activator]
O=C(NCCCN1CCN(c2cccc(Cl)c2)CC1)c1nnc(Cc2ccc(F)cc2Cl)o1,-12%,-2%
COc1ccc(OC)c(C2C(C(=O)Nc3ccccc3OC)=C(C)Nc3c(C(=O)Nc4ccc(F)cc4)cnn32)c1 (centres undefined),9%,2%
O=C(CN1CCN(C(=O)c2cc(-c3ccccc3)nc3ccccc23)CC1)NC1CC1,28%,36%[activator]

Gathered by group, the entries above with a COOH group
SMILES,2A Renilla,2A firefly
Cc1ccc(-c2nn(CC(=O)O)c(=O)c3ccccc23)cc1,-9%,-3%
CCOc1cc(/C=C2\NC(=O)NC2=O)cc(I)c1OCc1ccc(C(=O)O)cc1,10%,0%

The listing picks up, starting 2 compounds before the break.
SMILES,2A Renilla,2A firefly
COc1ccc(OC)c(C2C(C(=O)Nc3ccccc3OC)=C(C)Nc3c(C(=O)Nc4ccc(F)cc4)cnn32)c1 (centres undefined),9%,2%
O=C(CN1CCN(C(=O)c2cc(-c3ccccc3)nc3ccccc23)CC1)NC1CC1,28%,36%[activator]
CCC(=O)Nc1c(-c2cc(=O)oc3ccc(C(C)C)cc23)oc2ccccc12,-10%,-11%
CCc1cccc(C)c1NC(=O)c1cc2ccccc2oc1=O,-7%,-16%
Cc1sc2ncn(CC(=O)Nc3ccc(C(F)(F)F)cc3)c(=O)c2c1S(=O)(=O)N1CCN(C)CC1,9%,0%
CC(C)(C)c1noc(CN2CCN(C(=O)c3cccs3)CC2)n1,-8%,5%
CCCCC(=O)Nc1ccc2oc(-c3cccc(F)c3)nc2c1,12%,64%[activator]
COc1cc(C(=O)N(c2cc(C)cc(C)c2)C2C=CS(=O)(=O)C2)cc(OC)c1OC (centres undefined),19%,2%
CCOc1ccc(NC(=O)c2cc(=O)c3ccccc3o2)cc1,1%,104%[activator]
CCN(C(=O)Cn1c(SCC(=O)Nc2ccc(OC)cc2)nc2ccccc21)c1cccc(C)c1,118%[activator],2%
CCCCCSc1nnc2c(n1)[nH]c1c(C)cccc12,-1%,66%[activator]
COc1ccc(OC)c(NC(=O)c2cnn(-c3ccc(C)cc3)c2C2CCNCC2)c1,-8%,-3%
CC(C)OCCCNC(=O)CN1C(=O)COc2ccc(S(=O)(=O)N3CCCCCC3)cc21,18%,-13%
COc1ccc(CCC(=O)NC2CC(=O)N(c3ccc(C)c(C)c3)C2)cc1 (centres undefined),-3%,-15%
Cn1cc(C(=O)N2CCN(Cc3cccc4ccccc34)CC2)c(-c2ccc3c(c2)OCCCO3)n1,19%,20%
Brc1cccc(-c2nnn3c2nc(NC2CCCCC2)c2ccccc23)c1,-18%,-23%
Cc1ccc(COC(=O)c2ccc(-c3nnn(Cc4ccc(C)cc4)n3)cc2)cc1,-4%,1%
COc1ccccc1C(=O)Nc1cccc(C(=O)OCc2cc(=O)n3nc(C4CC4)sc3n2)c1,8%,6%
O=C(Nc1ccc(F)c(Cl)c1)C1CCN(S(=O)(=O)c2ccc3[nH]c(=O)ccc3c2)CC1,?,?
COc1ccc(CCNC(=O)CN(c2ccc(Br)cc2)S(C)(=O)=O)cc1OC,7%,16%
O=C(CSc1nc(-c2ccccc2)c(-c2ccccc2)o1)NCCCO,1%,-8%
Cc1cc(C)cc(C(=O)Nc2nnc3n2CCS3)c1,28%,0%

Retrieved one by one from the entries so far, 2 records:
SMILES,2A Renilla,2A firefly
COc1ccc(CCNC(=O)CN(c2ccc(Br)cc2)S(C)(=O)=O)cc1OC,7%,16%
Brc1cccc(-c2nnn3c2nc(NC2CCCCC2)c2ccccc23)c1,-18%,-23%

Continued.
SMILES,2A Renilla,2A firefly
CCOC(=O)CSc1nc2sc3c(c2c(=O)n1-c1ccc(OC)cc1)CC(C(C)C)OC3 (centres undefined),-14%,-7%
Cc1ccc(CNC(=O)c2cnn3c(C)c(Cc4c(F)cccc4Cl)c(C)nc23)cc1,15%,-24%
CN(CCO)c1ccc2c(c1)Oc1ccccc1CN(Cc1cn(Cc3ccccc3C(F)(F)F)nn1)S2(=O)=O,117%[activator],15%
Cc1nn(CC(=O)N2CCC(C)CC2)c(=O)c2cc3sccc3n12,6%,2%
Cc1cc(C)c2cc(C(=O)NC3CCN(S(C)(=O)=O)CC3)[nH]c2c1,-6%,4%
Cc1ccc(-n2nc3ccc(NC(=O)c4cc5ccccc5o4)cc3n2)cc1,2%,57%[activator]
COC(=O)C1=CN(Cc2ccc(OC)cc2)C=C(C(=O)OC)C1c1ccccc1OC(C)C,-6%,-5%
O=C(C1=COCCO1)N1CCN(c2ccccc2)CC1,1%,0%
COc1ccc(N2CC(NC(=O)/C=C\c3ccc4c(c3)OCO4)CC2=O)cc1 (centres undefined),-5%,17%
CNC(=S)NNC(=O)c1ccc(Cl)c(Cl)c1,10%,26%
CC(C)(C)C1CCc2onc(C(=O)Nc3sc4c(c3C(N)=O)CCCC4)c2C1 (centres undefined),-10%,-5%
COc1cccc(C2(c3cccc(OC)c3)CC2C(=O)O)c1 (centres undefined),21%,67%[activator]
CN(C(=O)CCn1cnc2c1c(=O)n(C)c(=O)n2C)C1CCCC1,-5%,5%
Cc1cnc(C(=O)NCc2ccc(C)s2)cn1,3%,14%
O=C(CN1C(=O)CSc2ccccc21)NO,-1%,7%
COc1cccc(C(=O)Nc2nc(-c3nnn(-c4cccc(Cl)c4C)c3C)ns2)c1,?,?
Cc1cc2nc(/C(C#N)=C\c3ccc(OCc4ccc(F)cc4)cc3)[nH]c2cc1C,0%,36%[activator]
O=C(CCNC(=O)C1CC1)NC1CCCCC1,-3%,14%
NCCNc1cccc2ccccc12,-11%,-17%
O=c1cc(-c2cccnc2)nc2n(Cc3cccc(F)c3)c3ccccc3n12,1%,3%
CCc1ccc(NC(=O)c2ccc3c(Cl)c4c(nc3c2)CCC4)cc1,?,18%
O=S(=O)(NCCc1coc(-c2ccccc2)n1)c1ccc2ccccc2c1,131%[activator],-5%
COc1ccc(CCC(=O)Nc2nc(C)c(C(C)=O)s2)cc1,0%,23%
CCC(=O)c1c(-c2ccccc2)nc2n(CCN3CCOCC3)c3ccccc3n12,-15%,-28%
CC(C(=O)Nc1ccccc1F)N(C)Cc1ccc2c(c1)OCCO2 (centres undefined),-8%,3%
COCCn1c(SC(C)C(=O)c2ccc(OC(F)F)cc2)nnc1-c1ccccc1 (centres undefined),21%,-5%
CCCCCCCCCCCCSCCS(=O)(=O)OCC(F)(F)C(F)F,-4%,-14%
COc1ccccc1Nc1nc(-c2ccccc2)nc2ccccc12,1%,19%
O=C(CSc1nc(=O)n(Cc2ccncc2)c2c1CCC2)Nc1ccc2c(c1)OCO2,-4%,-3%
Cc1ccc(Nc2nc(C(=O)OCC(=O)c3ccc(Br)cc3)cs2)cc1,-23%,21%
CCc1ccc(CNC(=O)c2c(C)oc3ncnc(N4CCOCC4)c23)cc1,33%[activator],22%
N=C(N)SCCSc1cc(Cl)ccc1Cl,-10%[1.06 µM],49%[activator]
COc1cc(CN(C)CC(=O)N2c3ccccc3NC(=O)CC2C)ccc1OC(F)F (centres undefined),-3%,-2%
NC(=O)c1ccccc1NC(=O)CN1c2ccccc2S(=O)(=O)c2ccccc21,-2%,-10%
Nc1cccc(OCCc2ccccc2)c1,14%,85%[activator]
COc1ccc2nc3sc(C(=O)NCCc4ccc(Cl)cc4)cc3cc2c1,-19%,-23%
Fc1ccc(CSc2nnc([C@@H]3CCCN3)o2)cc1,-3%,10%
O=C(c1ccc(S(=O)(=O)N2CCOCC2)cc1)N(c1ccccc1)C1C=CS(=O)(=O)C1 (centres undefined),-11%,-11%
COc1cc(NC(=O)c2cccc(N3C(=O)C(C)(C)CS3(=O)=O)c2)cc(OC)c1OC,19%,4%
Cc1ccc(-c2cc(C(=O)Nc3ncccc3C)c3ccccc3n2)s1,-14%,14%

Entries listed so far containing a CF3 group, in the order listed:
SMILES,2A Renilla,2A firefly
Cc1sc2ncn(CC(=O)Nc3ccc(C(F)(F)F)cc3)c(=O)c2c1S(=O)(=O)N1CCN(C)CC1,9%,0%
CN(CCO)c1ccc2c(c1)Oc1ccccc1CN(Cc1cn(Cc3ccccc3C(F)(F)F)nn1)S2(=O)=O,117%[activator],15%

Remaining list, next part:
SMILES,2A Renilla,2A firefly
Cc1ccc(C)c(CNC(=O)CN2C(=O)CSc3ccc(S(=O)(=O)N(C)C)cc32)c1,33%[activator],11%
FC(F)(F)c1ccccc1CNCc1ccccc1Cl,1%,0%
Cc1nc2c3ccccc3nn2c(C)c1CCC(=O)Nc1ccc(C#N)cc1,-12%,-12%
CCn1c(C)c(C(=O)NCc2cccnc2)c2cc(OC)ccc21,4%,11%
CC(C)(C)c1ccc(OCc2nn3c(-c4ccncc4)nnc3s2)cc1,4%,0%
COc1cccc(C(=O)Nc2ccc3oc(-c4cccc5c(Br)cccc45)nc3c2)c1,17%&-3%,24%&-1%
Cc1ccc(CN(C(=O)COc2ccc(C(C)C)cc2)C2CCS(=O)(=O)C2)o1 (centres undefined),0%,0%
Cc1ccc(NC(=O)COC(=O)c2ccc3ccccc3n2)cc1C,?,?
COc1ccc(CN[C@H]2CS(=O)(=O)C[C@@H]2S(=O)(=O)c2ccc(F)cc2)cc1OC,1%,17%
O=C(OCC(=O)c1c[nH]c2ccccc12)c1ccc(F)c(S(=O)(=O)N2CCOCC2)c1,-22%,-14%
C#CCOc1ccc(C(=O)Nc2ccc3ccccc3c2)cc1,6%,31%[activator]
CC[C@H](C)[C@H](N)C(N)=O,7%,0%
COc1ccc2cc(C(=O)NCCOc3ccccc3F)c(C)nc2c1,11%,167%[activator]
Cc1ccc(SC(C)C(=O)NC2CCCCC2)cc1 (centres undefined),-2%,0%
CC(=O)c1cccc(NC(=O)c2cc(C)nc3c2c(C)nn3-c2cccc(Cl)c2C)c1,-9%,-5%
CC1CCC(NC(=O)CSc2nc3cc([N+](=O)[O-])ccc3o2)CC1 (centres undefined),2%,15%
COc1ccccc1CN1CCC(CNC(=O)c2cnn(-c3ccc(Cl)cc3)c2C2CCN(C(=O)OC(C)(C)C)CC2)CC1,26%,2%
CC1(C)CC(=O)C2=C(C1)OC(N)=C(C#N)C2c1ccc(Br)cc1 (centres undefined),6%,-6%
CCC(=O)C1=C(c2ccc(OC)c(OC)c2)N(C(=O)CC)n2c(nnc2-c2ccc(C)cc2)S1,-13%,-21%
Cc1cccn2c(=O)cc(COc3ccccc3NC(=O)Nc3ccccc3F)nc12,2%,14%
COc1ccc(C(=O)Nc2nnc(-c3ccccc3Br)s2)cc1OC,0%,15%
CC(=O)N1CCCC1c1nc2ccccc2n1Cc1c(F)cccc1Cl (centres undefined),36%[activator],-2%
O=c1c2ccccc2c(-c2cccs2)nn1CC(O)COCc1ccccc1Cl (centres undefined),6%,-7%
COc1cc2c(cc1OC)C(c1ccc(C)cc1)OC2=O (centres undefined),-17%,-15%
CCc1ccc(OCC(=O)N(Cc2ccco2)Cc2ccccc2Cl)cc1,70%[activator],13%
Cc1cccc(NC(=O)C(=O)NCCCN2CCOCC2)c1,-17%,48%[activator]

Screening data (PubChem)
